NOMO-1 viab: STK33 inhibitor candidate reducing NOMO-1 cell viability | inhibition, % (test concentration not listed) | 7.5% of 37,000 active | AID 2330 | NOMO-1 AML viability, CellTiter-Glo luminescence, 72 h;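 active means most replicates above 80%; inconclusive means exactly half above 80%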;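 further: wells of about 30 µL received 25 nL stock; 0% = median of vehicle wells and 100% = reference inhibitor level; the first replicate is given; inactives centre near 10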
An asterisk follows results filed as active. A portion of the library. The share of hits here may be higher or lower than overall.

Screening C[C@@H]1CN([C@H](C)CO)C(=O)c2cccc(NS(=O)(=O)c3ccccc3)c2O[C@@H]1CN(C)Cc1ccc(C(F)(F)F)cc1 returned NOMO-1 viab 18.
C[C@@H]1CN([C@H](C)CO)C(=O)c2cccc(NS(=O)(=O)c3ccccc3)c2O[C@H]1CN(C)C(=O)Nc1ccccc1 was read as NOMO-1 viab 4.
CCc1c(O)cc(O)c2c1O[C@H](C)CC2=O was read as NOMO-1 viab -5.
O=c1[nH]c(=S)[nH]c(O)c1C=Nc1cccc(O)c1 was read as NOMO-1 viab 11.
For C[C@H](CO)N1C[C@H](C)[C@@H](CN(C)Cc2ccc(C(=O)O)cc2)Oc2ccc(NS(=O)(=O)c3ccc(Cl)cc3)cc2C1=O the results were NOMO-1 viab 23.
COC(=O)c1ccccc1NC(=O)COc1ccc(C(C)C)cc1Br was read as NOMO-1 viab 36.
Cc1ccc(S(=O)(=O)Nc2ccc3c(c2)CC(=O)N([C@@H](C)CO)C[C@H](C)[C@H](CN(C)S(=O)(=O)c2c(C)noc2C)O3)cc1 was read as NOMO-1 viab 16.
Screening COc1ccc(Oc2c(C(F)(F)F)oc3cc(OCC(=O)Nc4ccccc4F)ccc3c2=O)cc1 returned NOMO-1 viab 96*.
C[C@@H]1CN([C@@H](C)CO)C(=O)c2cc(NC(=O)Nc3ccccc3)ccc2O[C@H]1CN(C)Cc1ccc(C(F)(F)F)cc1 was read as NOMO-1 viab 79.
`C[C@H]1CN([C@@H](C)CO)C(=O)c2cc(NC(=O)Nc3ccc(C(F)(F)F)cc3)ccc2O[C@H]1CN(C)Cc1ccccc1` gave NOMO-1 viab 103*.
For Cc1ccc(S(=O)(=O)NC(C)C(=O)Nc2c(C)cc(C)cc2C)cc1 (configuration not stated) the results were NOMO-1 viab 28.
For COc1cc(NC(=O)COc2ccc(C(C)C)cc2)ccc1-c1cc2ccccc2oc1=O the results were NOMO-1 viab 32.
Screening C[C@@H]1CN([C@H](C)CO)C(=O)c2cccc(NS(C)(=O)=O)c2O[C@@H]1CN(C)Cc1ccc(C(F)(F)F)cc1 returned NOMO-1 viab 16.
Screening COc1ccc(NC(=O)N(C)C[C@@H]2Oc3c(NS(=O)(=O)c4ccc(Cl)cc4)cccc3C(=O)N([C@@H](C)CO)C[C@H]2C)cc1 returned NOMO-1 viab 4.
Screening COc1ccc(NC(=O)N(C)C[C@@H]2Oc3c(NS(=O)(=O)c4cn(C)cn4)cccc3C(=O)N([C@H](C)CO)C[C@H]2C)cc1 returned NOMO-1 viab -14.
`Cc1ccc(S(=O)(=O)N(C)CCCc2nc3ccccc3[nH]2)cc1` gave NOMO-1 viab 27.
Screening Cc1nc(-c2cc(C#N)c(SCCNS(=O)(=O)c3ccc(C(C)(C)C)cc3)nc2C)cs1 returned NOMO-1 viab 52.
For COc1ccc(NC(=O)Nc2ccc3c(c2)CC(=O)N([C@H](C)CO)C[C@H](C)[C@H](CN(C)S(=O)(=O)c2ccc(OC)cc2)O3)cc1 the results were NOMO-1 viab 23.
For Cc1ccc(C(=O)COc2cccc(NC(=O)c3cccs3)c2)cc1C the results were NOMO-1 viab 23.
Screening Cc1oc2cc(OC(C)C)ccc2c(=O)c1-c1ccc2c(c1)OCCO2 returned NOMO-1 viab -12.
`Cc1cc(C(=O)Nc2cccc3c2O[C@H](CN(C)C(=O)NC2CCCCC2)[C@H](C)CN([C@@H](C)CO)C3=O)n(C)n1` gave NOMO-1 viab -10.
`C[C@@H]1CN([C@@H](C)CO)C(=O)c2cc(NC(=O)CCN3CCOCC3)ccc2O[C@@H]1CN(C)C` gave NOMO-1 viab -2.
`C=CCn1c(=O)c(C(=O)NCCO)c(O)c2ccccc21` gave NOMO-1 viab 3.
For CC(C)NC(=O)N(C)C[C@@H]1Oc2ccc(NC(=O)Nc3ccccc3)cc2CC(=O)N([C@H](C)CO)C[C@H]1C the results were NOMO-1 viab 6.
`C[C@H](CO)N1C[C@H](C)[C@H](CN(C)CC2CCCCC2)Oc2ccc(NC(=O)Nc3ccc(C(F)(F)F)cc3)cc2C1=O` gave NOMO-1 viab 116*.
`COc1cc2c(c(O)c1CO)C(=O)CCC2O` (configuration not stated) gave NOMO-1 viab 3.
C[C@H]1CN([C@@H](C)CO)C(=O)c2cc(NC(=O)Nc3ccccc3)ccc2O[C@@H]1CN(C)Cc1ccc(C(F)(F)F)cc1 was read as NOMO-1 viab inconclusive.
Screening C[C@@H]1CN([C@H](C)CO)C(=O)c2cc(NS(=O)(=O)c3cn(C)cn3)ccc2O[C@@H]1CN(C)Cc1ccc(C(=O)Nc2ccccc2N)cc1 returned NOMO-1 viab 20.
Screening CC(C)NC(=O)N(C)C[C@@H]1Oc2ccc(NC(=O)c3ccncc3)cc2C(=O)N([C@H](C)CO)C[C@@H]1C returned NOMO-1 viab 15.
Screening C[C@@H]1CN([C@@H](C)CO)C(=O)c2cccc(NC(=O)C3CCOCC3)c2O[C@H]1CN(C)C(=O)Nc1cccc2ccccc12 returned NOMO-1 viab 0.
Cc1c(N=C2NC(=O)C(CC(=O)Nc3ccccc3)S2)c(=O)n(-c2ccccc2)n1C (configuration not stated) was read as NOMO-1 viab -15.
Screening COc1cc(OC)c(NC(=O)CSc2nnc(-c3ccncc3)n2C)cc1Cl returned NOMO-1 viab -23.
Screening O=C(COc1ccccc1)Nc1ccc([N+](=O)[O-])cc1O returned NOMO-1 viab 3.
Screening CCOc1ccc(Oc2nc(N(CC)CC)nc(N3CCOCC3)n2)nn1 returned NOMO-1 viab 35.
`CS(=O)(=O)N(CC(=O)Nc1cc(Cl)ccc1Oc1ccccc1)c1ccccc1Br` gave NOMO-1 viab 46.
Cc1cc(C(=O)Nc2ccc(S(=O)(=O)Nc3nccs3)cc2)c(C)o1 was read as NOMO-1 viab -9.
For C[C@H](CO)N1C[C@H](C)[C@H](CN(C)S(=O)(=O)c2cccs2)Oc2ccc(NC(=O)Cc3ccccc3)cc2CC1=O the results were NOMO-1 viab 4.
O=C(NCCCN1CCCC1=O)Nc1ccc(Br)cc1 was read as NOMO-1 viab -11.
`COc1ccc(CN(C)C[C@@H]2Oc3c(NS(=O)(=O)c4ccccc4)cccc3C(=O)N([C@H](C)CO)C[C@@H]2C)cc1` gave NOMO-1 viab -11.
For COc1cccc(C(=O)N(Cc2nc(-c3ccc(C)cc3)no2)C(C)C)c1 the results were NOMO-1 viab 21.
For CSc1scc2c1-c1nc(SCC(=O)c3ccc(Cl)cc3)ncc1CC2 the results were NOMO-1 viab -4.
For C[C@H](CO)N1C[C@H](C)[C@H](CN(C)S(=O)(=O)c2ccccc2)Oc2ccc(NC(=O)CCC(F)(F)F)cc2C1=O the results were NOMO-1 viab 1.
Screening Cc1ccc(C)c(S(=O)(=O)NC(C)C(=O)Nc2ccc(Br)cc2F)c1 (configuration not stated) returned NOMO-1 viab 2.
`COc1cc(NC(=O)CSc2nc(C)cc(C)n2)cc(OC)c1OC` gave NOMO-1 viab 34.
COc1ccc(NC(=O)Nc2cccc3c2O[C@@H](CN(C)Cc2ccc(Cl)c(Cl)c2)[C@H](C)CN([C@@H](C)CO)C3=O)cc1 was read as NOMO-1 viab 111*.
Screening C[C@H]1CN([C@@H](C)CO)C(=O)c2cc(NS(=O)(=O)c3ccc(Cl)cc3)ccc2O[C@@H]1CN(C)CC1CC1 returned NOMO-1 viab 21.
For COc1ccc(NC(=O)N(C)C[C@H]2OCCCC[C@@H](C)Oc3ccc(NC(=O)CCC(F)(F)F)cc3C(=O)N([C@H](C)CO)C[C@@H]2C)cc1 the results were NOMO-1 viab 11.
COc1ccc(NC(=O)N(C)C[C@H]2Oc3ccc(NS(=O)(=O)c4cccs4)cc3CC(=O)N([C@H](C)CO)C[C@H]2C)cc1 was read as NOMO-1 viab 0.
Screening CC(C(=O)Nc1cccc([N+](=O)[O-])c1)N1C(=O)C2C3C=CC(C4CC34)C2C1=O (configuration not stated) returned NOMO-1 viab 14.
Screening CCC(C)CCC(O)C1=C(C)C(O)OC1=O (configuration not stated) returned NOMO-1 viab 32.
Screening C[C@@H]1CN([C@H](C)CO)C(=O)c2cccc(NC(=O)Nc3cccc4ccccc34)c2O[C@H]1CN(C)C(=O)Nc1ccc(F)cc1 returned NOMO-1 viab 44.
For Cc1cccc(NC(=O)c2ccc(OC(C)C(=O)Nc3ccc(Br)cc3)cc2)c1C (configuration not stated) the results were NOMO-1 viab 115*.
`COC(=O)c1ccccc1NC(=O)CSc1nc2c(cc1C#N)CCCCC2` gave NOMO-1 viab -14.
Screening COc1ccc(CN(C)C[C@@H]2Oc3ccc(NC(=O)Nc4ccc(C(F)(F)F)cc4)cc3C(=O)N([C@H](C)CO)C[C@H]2C)cc1 returned NOMO-1 viab 30.
COc1ccc(C)cc1S(=O)(=O)N(C)CC(=O)Nc1ccc2c(c1)OCCO2 was read as NOMO-1 viab 4.
Screening O=C(CCn1cnc2ccccc2c1=O)Nc1ccc(F)c(C(F)(F)F)c1 returned NOMO-1 viab 5.
Cc1noc(C)c1NC(=O)Nc1cccc2c1O[C@H](CN(C)C(=O)Nc1ccc(F)cc1)[C@H](C)CN([C@H](C)CO)C2=O was read as NOMO-1 viab -14.
CCOC(=O)c1c(NC(=O)c2ccc(C)c(S(=O)(=O)N3CCOCC3)c2)sc2c1CCC2 was read as NOMO-1 viab 13.
Screening COc1ccc(S(=O)(=O)Nc2cccc3c2O[C@@H](CN(C)CC2CC2)[C@H](C)CN([C@H](C)CO)C3=O)cc1 returned NOMO-1 viab 1.
`N#Cc1c(NC(=O)Cn2c(=O)oc3ccccc32)sc2c1CCCC2` gave NOMO-1 viab 10.
C[C@H](CO)N1C[C@H](C)[C@H](CN(C)S(=O)(=O)c2cccs2)Oc2c(NC(=O)c3cnccn3)cccc2C1=O was read as NOMO-1 viab 15.
For Cc1cc(C)c2oc(-c3ccc(NC(=O)COc4ccc([N+](=O)[O-])cc4)cc3)nc2c1 the results were NOMO-1 viab 67.
C[C@@H]1CN([C@@H](C)CO)C(=O)c2cccc(NC(=O)c3ccncc3)c2O[C@@H]1CN(C)CC1CC1 was read as NOMO-1 viab 5.
For C[C@H]1CN([C@@H](C)CO)C(=O)c2cccc(NC(=O)c3nc4ccccc4s3)c2O[C@@H]1CN(C)S(=O)(=O)c1ccc(F)cc1 the results were NOMO-1 viab 62.
`CS(=O)(=O)Nc1ccc2c3c(cccc13)CC2` gave NOMO-1 viab -8.
COc1ccccc1NC(=O)CN1C(=O)C2C3CCC(C3)C2C1=O (configuration not stated) was read as NOMO-1 viab 10.
C[C@@H]1CN([C@@H](C)CO)C(=O)c2cc(NS(=O)(=O)c3cccs3)ccc2O[C@@H]1CN(C)C(=O)Nc1ccc2c(c1)OCO2 was read as NOMO-1 viab 24.
`Cc1cc(C)cc(Oc2coc3cc(OCC(=O)NCc4ccccc4)ccc3c2=O)c1` gave NOMO-1 viab 31.
For N#Cc1c(NC(=O)CN2CCN(Cc3ccccc3)CC2)sc2c1CCCC2 the results were NOMO-1 viab 7.
Screening Cc1ccc(S(=O)(=O)Nc2ccc3c(c2)CC(=O)N([C@H](C)CO)C[C@@H](C)[C@@H](CN(C)S(=O)(=O)c2c(C)noc2C)O3)cc1 returned NOMO-1 viab 5.
Screening Cc1ccc(-c2nn(CC(=O)NCCN3CCOCC3)c(=O)c3ccccc23)cc1 returned NOMO-1 viab -21.
`C[C@H](CO)N1C[C@H](C)[C@@H](CN(C)Cc2ccc(C(F)(F)F)cc2)Oc2c(cccc2N(C)C)C1=O` gave NOMO-1 viab 26.
COc1ccc(Cl)cc1NC(=O)C(C)n1cc([N+](=O)[O-])cn1 (configuration not stated) was read as NOMO-1 viab 21.
Cc1cc(C(=O)Nc2cccc3c2O[C@H](CN(C)C(=O)NC(C)C)[C@@H](C)CN([C@@H](C)CO)C3=O)n(C)n1 was read as NOMO-1 viab -22.
Screening COc1ccc(C(C)C)cc1S(=O)(=O)n1nnc2ccccc21 returned NOMO-1 viab -2.
For Cc1noc(C)c1NC(=O)Nc1ccc2c(c1)CC(=O)N([C@H](C)CO)C[C@@H](C)[C@@H](CN(C)Cc1ccc(C(F)(F)F)cc1)O2 the results were NOMO-1 viab 26.
Screening Cc1noc(C)c1NC(=O)Nc1cccc2c1O[C@@H](CN(C)Cc1ccc(C(=O)O)cc1)[C@H](C)CN([C@@H](C)CO)C2=O returned NOMO-1 viab 23.

Among those listed so far, 9 have a thiophene ring, fused or not.
For Cc1ccc(C(=O)COc2cccc(NC(=O)c3cccs3)c2)cc1C the results were NOMO-1 viab 23.
For C[C@H](CO)N1C[C@H](C)[C@H](CN(C)S(=O)(=O)c2cccs2)Oc2ccc(NC(=O)Cc3ccccc3)cc2CC1=O the results were NOMO-1 viab 4.
For CSc1scc2c1-c1nc(SCC(=O)c3ccc(Cl)cc3)ncc1CC2 the results were NOMO-1 viab -4.
COc1ccc(NC(=O)N(C)C[C@H]2Oc3ccc(NS(=O)(=O)c4cccs4)cc3CC(=O)N([C@H](C)CO)C[C@H]2C)cc1 was read as NOMO-1 viab 0.
CCOC(=O)c1c(NC(=O)c2ccc(C)c(S(=O)(=O)N3CCOCC3)c2)sc2c1CCC2 was read as NOMO-1 viab 13.
`N#Cc1c(NC(=O)Cn2c(=O)oc3ccccc32)sc2c1CCCC2` gave NOMO-1 viab 10.
C[C@H](CO)N1C[C@H](C)[C@H](CN(C)S(=O)(=O)c2cccs2)Oc2c(NC(=O)c3cnccn3)cccc2C1=O was read as NOMO-1 viab 15.
C[C@@H]1CN([C@@H](C)CO)C(=O)c2cc(NS(=O)(=O)c3cccs3)ccc2O[C@@H]1CN(C)C(=O)Nc1ccc2c(c1)OCO2 was read as NOMO-1 viab 24.
For N#Cc1c(NC(=O)CN2CCN(Cc3ccccc3)CC2)sc2c1CCCC2 the results were NOMO-1 viab 7.
